# ALR inh: inhibitors of human ALR sulfhydryl oxidase, primary screen, biochemical, H2O2 detection, HRP-luminol luminescence, single point; FAD-linked sulfhydryl oxidase ALR (Homo sapiens), P55789; purified ALR, DTT oxidation; inhibition, % (test concentration not listed); actives 3.8% (n = 290,000); AID 485317, 2010;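 active means mean and each replicate at 75% or more; inconclusive means only one of the two met; inactive means neither met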;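 further: stock transfer was 7.5 nL into about 7.5 µL; 0% = neutral wells and 100% = wells with inactivated enzyme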
# Target sequence (P55789 whole entry, looked up): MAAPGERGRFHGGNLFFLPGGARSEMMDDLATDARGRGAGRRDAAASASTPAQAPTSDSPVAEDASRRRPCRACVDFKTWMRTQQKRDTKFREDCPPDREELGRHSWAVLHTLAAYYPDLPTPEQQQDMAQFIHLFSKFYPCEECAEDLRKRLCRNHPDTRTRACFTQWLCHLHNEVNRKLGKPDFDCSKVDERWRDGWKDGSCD
# HNF4A DNA FP: change in binding of human HNF4A to DNA, primary screen, biochemical, fluorescence polarization, FITC-DNA. 1 h. AID 1224865, 2016. actives 0.3% (n = 360,000). Hepatocyte nuclear factor 4-alpha (Homo sapiens), P41235. activity change, % at 10 µM; in the data active means activity change above about 30%, passing the limit was not always enough;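 further: controls were the assay level and a saturating level of protein; the project sought stronger binding though the title names inhibitors; some compounds called inactive have numbers as strong as hits; positive values seem to mean higher polarization but the record does not say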
# FGF22 binding: binders of human FGF22 protein, primary screen, FGF22 synaptogenesis inhibitor project, biophysical, thermal shift, single point. Fibroblast growth factor 22 (Homo sapiens), Q9HCT0. calls only at 9.99 µM. AID 651658, 2012. recombinant FGF22 thermal shift, SYPRO orange fluorescence; percent of sucrose octasulfate shift, DMSO zero. actives 1.5% (n = 340,000);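 active means melting point raised past a set limit in the mean and every replicate; inconclusive means no clear call; three in four hits are not shown here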
# Target sequence (Q9HCT0 whole entry, looked up): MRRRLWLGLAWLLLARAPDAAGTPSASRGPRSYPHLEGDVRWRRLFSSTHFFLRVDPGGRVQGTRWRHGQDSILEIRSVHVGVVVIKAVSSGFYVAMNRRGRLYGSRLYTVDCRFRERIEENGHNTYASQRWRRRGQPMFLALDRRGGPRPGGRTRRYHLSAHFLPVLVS
# MLL AF4-AF9 inh: inhibitors of AF4 peptide binding to AF9, primary screen, biochemical, AlphaScreen, biotin-AF4 peptide, FLAG-AF9, single point; actives 0.47% (n = 350,000); Protein AF-9 (Homo sapiens), P42568; AID 651704, 2012; inhibition, % at 10 µM;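 active means every replicate reaching a set inhibition limit, whatever the replicate mean, cut at about 25% in these data; inconclusive means mean inhibition reaches that limit but some replicates miss it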;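 further: 0% = plate neutral control median and 100% = total signal loss; the record names both 10 and 1 µM as test concentration; the first replicate is given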
# Target sequence (P42568 whole entry, looked up): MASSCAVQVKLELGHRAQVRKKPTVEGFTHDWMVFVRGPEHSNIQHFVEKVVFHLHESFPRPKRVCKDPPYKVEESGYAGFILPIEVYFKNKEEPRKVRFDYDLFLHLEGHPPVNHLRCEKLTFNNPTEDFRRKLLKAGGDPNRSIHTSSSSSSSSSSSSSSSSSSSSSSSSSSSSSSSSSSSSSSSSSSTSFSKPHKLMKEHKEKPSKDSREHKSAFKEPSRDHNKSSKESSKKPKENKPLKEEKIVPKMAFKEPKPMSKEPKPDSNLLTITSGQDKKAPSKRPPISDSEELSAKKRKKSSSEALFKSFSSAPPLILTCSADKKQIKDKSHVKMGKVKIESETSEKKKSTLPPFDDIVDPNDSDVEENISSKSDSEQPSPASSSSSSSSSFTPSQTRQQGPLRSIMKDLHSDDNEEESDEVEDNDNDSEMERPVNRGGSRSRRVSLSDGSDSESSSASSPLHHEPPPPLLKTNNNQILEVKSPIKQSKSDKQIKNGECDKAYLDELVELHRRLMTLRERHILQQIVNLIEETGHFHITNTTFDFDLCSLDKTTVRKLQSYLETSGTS
# E coli growth: E. coli growth inhibition, primary screen, OD600; OD600 absorbance (no concentration beside the values); actives 0.21% (n = 330,000); Escherichia coli growth, 23 h; hits give low values; AID 1053175, 2014;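 active means OD600 absorbance below the run mean of sample wells minus 3.6 SD, in any replicate, cut at about 0.56 in these data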;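 further: stock transfer was 300 nL into about 60 µL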
# Vif A3G: inhibitors of Vif binding to APOBEC3G peptide, primary screen, biochemical, TR-FRET, GST-Vif 1-94, biotin-A3G peptide, dose response retest (AID 1117319) | inhibition, %, or IC50 in µM where a hit was titrated | actives 0.57% (n = 260,000) | TR-FRET GST-Vif / biotin-A3G peptide binding; higher % means a stronger effect; test concentration not given here; strong numbers were not always called active;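 active means above the screen mean plus three standard deviations and confirmed in dose response; inconclusive means results disagree or hit not tested in dose response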;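 further: Vif residues 1-94 fused to GST binding biotinylated APOBEC3G peptide 110-148; 0% = full assay without inhibitor and 100% = GST in place of GST-Vif; retest series ran down from 100 µM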
# rRNA inh HTS: reduced GFP signal of wild-type E. coli, primary screen, bacterial rRNA inhibitor project, GFP/RFP fluorescence, OD600, single point | E. coli WT GFP vs humanized-ribosome RFP mutants, 24 h; hits give low values; DMSO median 0, no signal -100 | GFP signal change (wild-type ribosome), % (test concentration not listed) | actives 1.6% (n = 350,000) | AID 720706, 2013;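 active means significant combined selectivity score with lowered wild-type GFP, culture density cut under 30%, mutant RFP and density less affected; inactive means any of these conditions unmet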; further: one replicate is shown; some compounds called inactive have numbers as strong as hits
# rRNA inh HTS OD600: also measured in rRNA inh HTS; calls as there; OD600 change, %; measured here: OD600 growth;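 optical density of the mix in the first replicate; 0 = DMSO median and -100 = no signal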
# rRNA inh HTS RFP: second read-out of rRNA inh HTS, no call of its own (marks repeat the call); RFP signal change, %; measured here: RFP humanized mutant strains;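 first replicate; 0 = DMSO median and -100 = no signal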
# Active calls of the source: *; i = inactive; ? = inconclusive; / = not tested or not shown. Not all compounds are listed; count on the stated rates, not on these rows.
SMILES,ALR inh,HNF4A DNA FP,FGF22 binding,MLL AF4-AF9 inh,E coli growth,Vif A3G,rRNA inh HTS,rRNA inh HTS OD600,rRNA inh HTS RFP
Cc1ccc(-c2nnn(CC(=O)N(c3ccc4c(c3)OCCO4)C(C(=O)NCC3CCCO3)c3ccc(F)cc3)n2)o1 (centres undefined),-1.7,-0.2,i,0.1,0.702,-6.7%,1.0,-1.3,0.9
COc1ccc(/C=C(/NC(=O)c2ccccc2)C(=O)NCCN2CCOCC2)cc1OC,-9.8,1.2,i,-3.6,0.707,/,/,/,/
C=CCn1c(COc2ccc(Cl)cc2)nnc1SCC(=O)NCC(=O)OCC,/,1.7,/,/,0.706,-1.9%,/,/,/
N#Cc1cccc(NC(=O)COC(=O)CCc2ccc(S(=O)(=O)N3CCOCC3)cc2)c1,3.1,1.3,i,1.1,0.663,?,5.0,5.1,1.7
CCOC(=O)c1sc(NC(=O)Nc2ccc(Cl)cc2)cc1C,-0.9,0.1,/,/,/,26.7%,/,/,/
N#C[C@H]1N[C@@H](CO)[C@@H]1c1ccc(-c2ccccc2F)cc1,/,/,i,-1.1,/,/,-3.8,-6.4,-3.9
COC(=O)C(NC(=O)c1ccc(OC)cc1)(Nc1ncc(S(=O)(=O)c2ccc([N+](=O)[O-])cc2)s1)C(F)(F)F (centres undefined),-47.3,0.5,/,/,0.675,6.0%,/,/,/
CCCOC(=O)C(C)n1c(-c2ccccc2)nc2ccccc2c1=O (centres undefined),91.3*,0.6,/,/,0.707,-2.9%,/,/,/
CCC(C)C(=O)Nc1nc(C)c(-c2csc(Nc3cc(Cl)ccc3OC)n2)s1 (centres undefined),-22.2,3.6,i,2.5,0.735,3.4%,2.1,5.7,-9.4
Cn1c(SCC(=O)NCc2ccc(F)cc2)ncc(C(=O)Nc2ccccc2)c1=O,-1.9,0.2,/,-1.3,0.704,-4.8%,-3.4,2.5,-4.9
Cc1oc(-c2ccccc2)cc1C(=O)Nc1cccc(C(=O)O)c1,84.4*,2.5,/,/,0.737,?,/,/,/
COc1ccc(CCC2(C)OCC(CCCCO)O2)cc1 (centres undefined),/,0.2,i,9.1,0.634,-4.0%,-1.5,8.2,3.4
C[C@H](CO)N1C[C@H](C)[C@@H](CN(C)C)Oc2cc(-c3ccc(C#N)cc3)ccc2S1(=O)=O,/,/,i,-2.3,/,/,2.8,5.3,-2.4
CO[C@H]1CN(C)C(=O)c2ccc(NC(=O)C3CC3)cc2OC[C@H](C)N(C(=O)Cc2ccccn2)C[C@H]1C,/,/,i,-1.5,/,/,3.5,10.3,-4.3
O=C(CNC(=O)c1[nH]cnc1C(=O)NC(c1ccccc1)c1ccccc1)OCc1ccccc1,-0.4,-3.2,i,1.5,/,/,8.9,-1.5,4.8
CCc1nc(N[C@@H](Cc2c[nH]c3ccccc23)C(=O)O)c2oc3ccccc3c2n1,88.7*,0.3,/,/,/,29.9%,/,/,/
COc1ccc(Cl)cc1NC(=O)C1CCCN(c2cc(C)nc3ncnn23)C1 (centres undefined),-2.3,3.7,/,/,0.732,-1.1%,/,/,/
CC=Cc1ccc2n(c1=O)C[C@H]1[C@H](CO)[C@@H](C(=O)NCC3CC3)N(CCC(F)(F)F)[C@@H]21 (mixture of isomers),/,/,i,-2.0,/,/,1.4,-8.2,0.1
COc1ccc(/C=N/Nc2ccc([N+](=O)[O-])cc2S(=O)(=O)N2CCN(C)CC2)cc1,-6.8,163.6,i,-12.2,/,/,16.1,10.6,-2.4
O=C(Nc1ccc2c(c1)CCO2)Nc1nnc([C@H]2C[C@H](O)[C@@H](CO)O2)s1,/,1.3,i,5.4,/,/,17.5,24.6,4.5
CN1CCC(=O)N([C@H](CN=[N+]=[N-])Cc2ccccc2)CC1,/,2.5,i,42.9*,/,/,2.1,13.4,-12.2
COc1ccc(CNC(=O)C2=CC(c3ccc(C)cc3)=NS(=O)(=O)N2C)cc1,-7.5,-0.3,i,3.2,0.68,/,/,/,/
O=c1[nH]c2cc3c(cc2cc1CN(Cc1nnnn1CC1CCCO1)C1CCCCC1)OCO3 (centres undefined),-6.4,-46.9,/,/,0.781,15.8%,/,/,/
COCC(C)n1c(C)cc(C(=O)COC(=O)c2ccc3c(c2)NC(=O)CS3)c1C (centres undefined),35.6,4.1,i,10.0,0.686,19.4%,8.9,3.8,1.5
Cn1nnnc1Sc1ncnc2scc(-c3cccc4c3sc3ccccc34)c12,0.5,2.5,i,-1.4,0.721,/,7.0,1.2,-2.3
O=C1CC(c2cccc(Oc3ccccc3)c2)NC(=O)N1 (centres undefined),/,-3.0,/,/,0.692,1.0%,/,/,/
O=c1ccn([C@@H]2O[C@H](CNS(=O)(=O)c3csc(-c4ccno4)c3)[C@@H](O)[C@H]2O)c(=O)[nH]1,/,3.0,i,-1.0,/,/,1.8,8.9,-2.4
Cc1cccc(NCC(=O)N/N=C\c2cccn2C)c1,23.9,0.3,i,9.3,/,/,-0.3,0.0,0.1
Cc1ccccc1NC(=O)CSc1nnc(-c2ccoc2C)n1CCc1ccccc1,1.7,-1.7,/,/,0.678,15.1%,/,/,/
O=C(NNc1c2ccccc2nc2ccccc12)C(O)c1ccccc1 (centres undefined),99.3*,-1.4,i,/,0.682,7.2%,-26.8*,-2.2*,1.9*
Cc1c(CCO)c(=O)n(C)n1C(=O)c1ccc(Cl)cc1,7.2,-0.2,/,/,0.693,?,/,/,/
C[C@@H]1CN([C@@H](C)CO)C(=O)c2cc(C#CCN(C)C)cnc2O[C@H]1CN(C)S(=O)(=O)c1ccccc1,/,/,i,0.5,/,/,3.5,14.1,-3.4
CCCCSc1nc(C)cc(C)c1S(=O)(=O)c1ccccc1C,-32.9,0.1,/,/,0.708,?,/,/,/
COc1ccccc1Cn1c(=S)[nH]c2cc(C(=O)NCCCN3CCOCC3)ccc2c1=O,52.8,1.3,i,0.1,0.682,-2.2%,-1.6,-1.8,0.6
CCOc1ccc(C(=O)NC(C(=O)NCc2ccccn2)C(C)C)cc1 (centres undefined),-6.4,4.5,/,/,0.699,0.8%,/,/,/
COc1ccc(NC(=O)N(Cc2ccc3c(c2)OCO3)C2CC(=O)N(c3ccc(OC)cc3)C2=O)cc1 (centres undefined),/,0.8,/,/,0.733,0.3%,/,/,/
Cc1nc(NC(=O)c2ccco2)sc1-c1csc(Nc2ccc(Cl)cc2)n1,-16.2,4.8,i,6.8,/,5.4%,-2.9,-5.1,5.1
CCCC(=O)NC(c1ccc(OC)cc1)c1c(O)ccc2ccccc12 (centres undefined),8.3,-3.4,i,0.1,0.717,-0.7%,-27.1*,-19.1*,2.1*
Cc1ccc(NC(=O)c2ccco2)cc1C,3.3,0.5,/,/,0.721,-2.6%,/,/,/
O=[N+]([O-])c1ccc(Cl)cc1P(=O)(O)c1cc(Cl)ccc1[N+](=O)[O-],/,-3.2,i,-5.7,/,5.5%,6.8,9.5,-1.7
CCN(CC(=O)Nc1ccc2c(c1)OCCO2)C(=O)/C=C/c1cc(Br)ccc1OC,/,0.5,i,-12.1,/,2.4%,1.0,0.3,2.3
CCCCN(CCCC)S(=O)(=O)c1ccc(NC(=O)Cc2cccs2)cc1,2.1,-4.4,i,2.1,0.671,>100µM*,-9.6,-1.7,-1.9
Cc1cc(NC(=O)Nc2ccc(F)c(Cl)c2)no1,9.4,-3.0,/,/,0.66,5.8%,/,/,/
COc1ccc(/C=C/C(=O)Nc2ccccc2C(=O)N2CCCC2)cc1,-0.2,-0.4,/,/,0.693,10.5%,/,/,/
OC[C@H]1Nc2ccc(C#Cc3ccc(F)cc3)cc2[C@H]2[C@@H]1CCN2Cc1ccc2c(c1)OCO2,/,/,i,10.1,/,/,-54.2,-75.8,-18.0
COc1ccc2nc(SC)cc(C)c2c1,-24.1,1.9,i,2.1,0.693,-14.9%,7.2,4.2,0.0
Nc1ccc(C(=O)OCC(=O)NC2CCCc3ccccc32)cc1[N+](=O)[O-] (centres undefined),-5.5,2.4,/,/,0.713,-4.0%,/,/,/
O=C(CCCOc1ccc(Cl)cc1)NCCc1ccccc1,/,-0.2,i,-5.6,0.671,/,-2.3,4.0,0.3
COc1ccccc1C(=O)Nc1ccnn1C1CCN(C(=O)C2CCOC2)CC1 (centres undefined),-1.4,0.1,i,-3.0,0.706,/,3.9,6.1,-5.1
COc1cc(CNc2ncnc3c2ncn3[C@H]2CN(Cc3cccs3)C[C@@H](CO)O2)cc(OC)c1OC,/,0.2,i,-1.1,/,/,-9.7,-10.9,-0.9

# (next part)
SMILES,ALR inh,HNF4A DNA FP,FGF22 binding,MLL AF4-AF9 inh,E coli growth,Vif A3G,rRNA inh HTS,rRNA inh HTS OD600,rRNA inh HTS RFP
C[C@H](NC(=O)C[C@H]1CC[C@H](NC(=O)Cc2ccccn2)[C@H](CO)O1)c1ccccc1,/,/,i,-0.2,/,/,1.3,1.0,-1.8
CCOc1nc2cnccc2n(CC(=O)Nc2ccccc2C(=O)OC)c1=O,-13.4,17.8,i,2.6,0.704,/,4.3,9.4,-2.4
O=C(NCc1ccco1)c1ccc(Cl)s1,-1.2,-1.3,/,0.9,0.693,6.4%,8.1,0.0,-4.5
O=C(Nc1nc(-c2ccncc2)cs1)c1ccc(F)cc1,-12.9,4.3,i,-2.7,0.671,-10.2%,15.4,7.4,-1.0
COc1ccc(NC(=S)Nc2ccccn2)cc1,31.7,-0.7,i,2.0,0.704,?,3.5,6.9,1.8
O=C(NCc1nnnn1-c1ccc(F)c(F)c1)c1cc2ccccc2o1,0.4,-1.5,i,-33.1,0.709,-2.1%,-4.4,-5.0,-3.1
CCOC(=O)CNC(=O)c1cn(C)c(=O)c2cc(OC)c(OC)cc12,-6.5,5.1,/,/,0.691,-1.8%,/,/,/
CCCC(c1nnnn1CS(=O)(=O)c1ccc(C)cc1)N1CCC(C(N)=O)CC1 (centres undefined),5.8,4.2,i,-3.5,0.665,/,-0.2,2.8,1.9
O=C(NCc1ccccn1)[C@@H]1CCCN1C(=O)[C@@H]1CCCN1C(=O)c1ccc(Cl)cc1,/,-1.5,i,-3.5,/,/,10.8,4.5,2.2
COC(=O)c1ccc(NC(=O)CSCc2ccc(C)cc2)cc1,-5.5,0.2,/,/,0.725,2.6%,/,/,/
COc1ccc(-c2nn(-c3ccccc3)cc2CNC(C)Cn2cncn2)c(F)c1 (centres undefined),-5.0,1.2,i,0.5,0.656,0.6%,-0.3,-7.4,-1.5
CCOc1ccc(/C(CCC(=O)O)=N/NC(=S)NC(C)C)cc1,17.6,-2.7,i,-1.5,/,-2.0%,6.0,1.6,-2.2
Cc1cccc(C(=O)OCC(=O)Nc2sc3c(c2C#N)CCC3)c1,2.1,-0.9,/,/,0.731,14.0%,/,/,/
O=C(O)CSc1ncn[nH]1,-2.5,-0.7,/,/,0.717,3.2%,/,/,/
CCOc1ccc(CCNC(=O)Cn2nc(C)c3c(C)n(-c4ccccc4)nc3c2=O)cc1,1.6,-3.4,i,0.9,0.648,1.4%,-3.6,2.4,4.1

# Compound activity deposited in PubChem by several laboratories.
